Screens (PubChem BioAssay)
Mtb hypoxia inh – inhibitors of hypoxia-regulated fluorescent reporter in Mycobacterium tuberculosis; fluorescence inhibition, % (no concentration beside the values); M. tuberculosis hypoxia-regulated fluorescent reporter, fluorescence; hit rate 0.1% among 300,000;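 active = 35 to 45% if threefold the growth effect, above 45% if 1.5-fold the growth effect; inactive = the rest, general growth blockers included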;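 also: wells of about 50 µL received 100 nL stock; 0% = vehicle wells and 100% = reference inhibitor wells; whole bacteria with a GFP reporter of the hypoxia response; strong numbers were not always called active; many hits fall short of the cut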
BJeLR viability – BJeLR cell viability loss. hit rate 0.17% among 300,000. AID 1554. inhibition, % (test concentration not listed). BJeLR (HRASV12) viability, CellTiter-Glo ATP luminescence, 48 h; reference of the scale not given here;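 active = replicate mean above 50%; inconclusive = above 50% but judged a plate artefact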;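 also: 50 nL library stock added to about 25 µL; numbers are from one replicate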
Sa ugtP lethal – compounds lethal to S. aureus RN4220 ugtP deletion mutant; OD600 growth, 16 h; some inactives read as strong as hits; growth inhibition, % (no concentration beside the values); hit rate 0.54% among 330,000; AID 1259309;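 active = z-score under -3 and OD600 up to 0.15 on both plates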;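 also: plate controls were untreated wells for no effect and antibiotic for full effect; wells of about 80 µL received 100 nL stock; the first replicate is given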
Autofluor counter – compound fluorescence in toxin protease inhibitor counterscreen | compound autofluorescence counterscreen, microsphere flow cytometry; active compounds read high | fluorescence intensity (no concentration beside the values) | hit rate 3.1% among 360,000;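 active = at least 3 SD above the mean of all compounds, about 16000 in these data; inconclusive = too few beads counted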;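 also: 100 nL of 1 mM stock went into each well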
PrP 5UTR inh – suppresses PrP 5' UTR mRNA reporter expression; cell-based PrP 5' UTR mRNA reporter, plate reader; hit rate 0.35% among 340,000; inhibition, % (test concentration not listed);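 active = every replicate at 50% or more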;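 also: 0 = median of the neutral control wells; tested in H4 reporter cells; numbers are from one replicate; inactives centre near -14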
RN4220 kill – kills Staphylococcus aureus RN4220; S. aureus RN4220 growth, OD600, 16 h; inhibition, % (concentration not given with the values); hit rate 0.33% among 330,000; AID 1259311;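 active = z-score of -3 or lower and OD600 up to 0.18 on both plates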;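 also: plate controls were untreated cells for no effect and reference antibiotic for full effect; stock transfer was 100 nL into about 80 µL; one replicate is shown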
Mtb hypoxia inh growth – recorded beside Mtb hypoxia inh, whose call it bears; growth inhibition, %; measured here: M. tuberculosis growth (absorbance);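 0% = vehicle and 100% = reference antibiotic; read after six days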
* = called active by the depositor; u = inconclusive; x = no result given.

Start of the data: the first 3 entries (preview)
Compound,Mtb hypoxia inh,Mtb hypoxia inh growth,BJeLR viability,Sa ugtP lethal,Autofluor counter,PrP 5UTR inh,RN4220 kill
CCN(CC(=O)Nc1sc2c(c1C#N)CCC(C)C2)Cc1nc2ccccc2c(=O)[nH]1 (stereo not drawn),2,0,-1,-10,4807,-23,1.5
COc1ccc(NN=Cc2c(C(=O)O)ccc3ccccc23)cc1,4,3,x,5,x,x,13
Cc1cccc(C(=O)NC(=S)N2CCN(C)CC2)c1,2,7,2,9,7843,-25,4.4

Results (from the top)
Compound,Mtb hypoxia inh,Mtb hypoxia inh growth,BJeLR viability,Sa ugtP lethal,Autofluor counter,PrP 5UTR inh,RN4220 kill
CCN(CC(=O)Nc1sc2c(c1C#N)CCC(C)C2)Cc1nc2ccccc2c(=O)[nH]1 (stereo not drawn),2,0,-1,-10,4807,-23,1.5
COc1ccc(NN=Cc2c(C(=O)O)ccc3ccccc23)cc1,4,3,x,5,x,x,13
Cc1cccc(C(=O)NC(=S)N2CCN(C)CC2)c1,2,7,2,9,7843,-25,4.4
Cc1nn(CC(=O)O)c2ccccc12,11,-5,-9,5,9824,-15,2.8
CCn1c2ccccc2c2cc(C=Nn3cn[nH]c3=S)ccc21,6,19,x,-2,x,x,11
CCOCC(=O)Nc1nc(C)cc(C)n1,2,7,8,12,2392,-13,0.9
O=[N+]([O-])c1ccc(C2=NCCO2)cc1,-6,-21,-2,0,3642,-2,9.3
COc1ccc(C(=O)Nc2ccc(Cl)cc2C(=O)N2CCCC(C)C2)cc1OC (stereo not drawn),7,3,3,1,2174,-5,6.0
Cc1ccccc1OCC(O)=C(C#N)c1nc2ccccc2[nH]1,9,-2,x,2,x,x,4.7
Cc1ccccc1OCC(=O)Nc1ccncc1,15,6,5,5,3784,-10,3.1
Oc1ccccc1N1CCN(C(=S)Nc2ccc(SC(F)F)cc2)CC1,6,-2,3,-1,3480,-10,-0.1
Cc1ccc(OCC(=O)n2nc(C)cc2C)c(C)c1,8,10,5,2,2938,1,3.2
CCOC(=O)C=c1sc(=Cc2ccc(-c3ccccc3)cc2)c(=O)n1CC(=O)NCc1ccc2c(c1)OCO2,5,2,x,-8,x,x,4.1
CC(CCc1ccccc1)NC(=O)COC(=O)c1ccc(S(C)(=O)=O)c([N+](=O)[O-])c1 (stereo not drawn),12,8,-11,19,4792,-11,-5.7
O=C(c1ccc(Cl)c(S(=O)(=O)N2CCCCCC2)c1)N1CCN(c2ccccn2)CC1,-1,6,-7,2,10619,-39,3.1
COc1ccc(C(C)=NN=C(N)N)c(O)c1,1,-5,x,12,x,x,4.3
CCOc1ccc(NC2C=CS(=O)(=O)C2)cc1 (stereo not drawn),-75,-9,-1,-11,9520,-13,6.3
N#Cc1ccccc1NC(=O)CNc1ccc(Cl)c(C(F)(F)F)c1,8,8,-7,-1,2512,-26,-0.3
CCN(CC(=O)NCc1cccs1)C(=O)/C=C/c1cccc(Br)c1,12,11,10,10,8665,-50,1.7
O=C(CCNC(=O)c1ccc([N+](=O)[O-])cc1)Nc1ccc(S(=O)(=O)N2CCOCC2)cc1,-3,0,3,1,5550,-21,4.5

New compounds follow.
Compound,Mtb hypoxia inh,Mtb hypoxia inh growth,BJeLR viability,Sa ugtP lethal,Autofluor counter,PrP 5UTR inh,RN4220 kill
Cc1c(Nc2scc(-c3ccccc3)[n+]2-c2ccccc2)c(=O)n(-c2ccccc2)n1C,-8,7,-9,8,3310,-11,26
CCOc1ccc(-c2noc(CCC(=O)NCC3CCCO3)n2)cc1OC (stereo not drawn),6,-4,-1,8,4342,1,0.3
O=C(Oc1ccc(C(=S)N2CCOCC2)cc1)c1ccc([N+](=O)[O-])cc1,1,-2,-6,9,3873,-14,4.4
CC(CCc1ccccc1)NC(=O)C1CCCN(c2nnc(-n3cccc3)s2)C1 (stereo not drawn),0,7,4,17,5903,-13,3.8
COc1ccc(C=NCCC2(O)CC(C)N(C)CC2C)cc1 (stereo not drawn),6,3,-1,16,4478,-10,0.8
CC(C)N1C(=O)C(=O)N(CC(=O)N2c3ccccc3NC(=O)CC2C)C1=O (stereo not drawn),2,-2,x,8,u,-3,2.6
COc1ccc(N2CCN(CC(=O)Nc3sccc3C#N)CC2)cc1,4,6,8,0,2094,-3,7.1
c1cc(-c2nnc(-c3ccncc3)o2)ccn1,-3,-13,6,1,4880,-38,-0.2
Cc1c(/C=N/NC(=O)CNc2ccccc2)c2ccccn2c1C(=O)c1ccncc1,x,x,-5,x,2396,-11,x
COc1ccc(OC)c(C=NNC(=O)CNC(=O)c2ccc(S(=O)(=O)N3CCOCC3)cc2)c1,-7,6,x,0,x,x,-2.4
COc1cccc(/C=C/C(=O)OCC(=O)c2cc(C)n(CC3CCCO3)c2C)c1OC (stereo not drawn),7,1,x,14,2509,-11,0.2
CCOC(=O)c1c(NC(NC(C)=O)C(Cl)(Cl)Cl)sc(C(C)=O)c1C (stereo not drawn),25,-15,9,-10,2814,9,-9.1
Cc1ccnc(NC(=S)NC(=O)/C=C/c2ccccc2)c1,10,9,-1,5,5037,-40,2.4
C#CCOCCOCCOCCNc1nc(N2CCN(C(=O)C(CCCCN)n3cc(CCC(=O)O)nn3)CC2)nc(N2CCN(C(=O)C(C(C)CC)n3cc(CCCN=C(N)N)nn3)CC2)n1 (stereo not drawn),9,9,x,4,x,x,3.0
Cc1ccccc1/C=N\NC(=O)c1ccccc1-n1cccc1,x,x,5,x,3245,-3,x
Cc1ccc(-c2cc(C(=O)OCn3nnc4ccccc4c3=O)c3ccccc3n2)cc1,4,9,5,-7,8872,-28,-4.0
CC(C)(C)c1ccc(C(=O)N2CCC3(CC2)NCCc2[nH]cnc23)cc1,2,11,4,-2,5181,0,0.6
O=C(CN1CCN(c2ccc(O)cc2)CC1)NC(c1ccccc1)c1ccccc1,10,3,-9,1,2028,-11,2.8
O=C(COC(=O)C1CCN(c2ccc(C(F)(F)F)cn2)CC1)c1ccccc1Cl,10,8,4,4,7411,-21,1.7
O=c1[nH]c2ccccc2nc1NCc1ccccc1,3,-1,-6,-3,2979,-18,3.4

(listing goes on)
Compound,Mtb hypoxia inh,Mtb hypoxia inh growth,BJeLR viability,Sa ugtP lethal,Autofluor counter,PrP 5UTR inh,RN4220 kill
COCCN(CCOC)S(=O)(=O)c1ccc(C(=O)Nc2nnc(C3CC3)o2)cc1,x,x,0,-1,4569,1,11
COc1cc(C(c2c(C)[nH][nH]c2=O)c2c(C)[nH][nH]c2=O)ccc1OS(=O)(=O)c1ccccc1,2,0,-15,13,16308*,-23,9.5
COC(=O)c1ccc(CON=Cc2ccc(OC)cc2)o1,12,6,x,7,x,x,13
OCCCNCc1ccc(Cl)cc1Cl,6,-2,-4,5,3582,-12,3.7
Cc1ccn2c(c1)nc(=S)n2C(=O)c1ccccc1,-2,4,6,0,2155,28,3.9
COc1cccc(C2/C(=C(/O)c3ccc4c(c3)OCO4)C(=O)C(=O)N2CCN2CCOCC2)c1 (stereo not drawn),8,2,-5,3,4836,-14,5.1
COCCCNC(=O)CN1CCN(Cc2ccccc2Cl)C1=O,5,6,-11,5,6568,-7,8.9
Cc1ccccc1CSCCNC(=O)c1ccc(N(C)S(=O)(=O)c2ccccc2)cc1,-12,13,0,-23,9889,0,-11
CC(=O)c1cccc(NC(=O)/C=C/c2ccc([N+](=O)[O-])s2)c1,16,11,63*,16,4950,-44,33
Cc1cc(OCC(=O)N(C)c2ccccc2)cc2c1C(=O)CC(C)(C)O2,4,3,-2,3,3672,0,1.6
CCn1c(CNC(=O)c2ccccc2F)nnc1SCCOc1ccccc1,-2,7,18,1,3801,3,7.0
Cc1ccc(S(=O)(=O)CCC(=O)OCC(=O)c2c(N)n(CC(C)C)c(=O)n(C)c2=O)cc1,3,-10,-24,-2,5963,-6,7.2
CC(=O)c1sc(NC(=O)CN2C(=O)C3CC=CCC3C2=O)nc1-c1ccccc1 (stereo not drawn),x,x,4,x,u,-1,x
Cc1cc2ncn(C(=O)N3CCC(C)CC3)c2cc1C,12,6,2,-9,2239,-68,4.1
Cc1cccc(N2CCN(C(=O)C3CCN(S(=O)(=O)N4CCOCC4)CC3)CC2)c1C,5,7,1,0,5444,6,-1.7
O=C(Cc1ccccc1F)NCC1(N2CCOCC2)CCCCC1,14,3,29,2,3524,9,4.6
CC1=CC(C)(C)N2C(=O)C3(NCCc4c3[nH]c3ccccc43)c3cc(C)cc1c32 (stereo not drawn),-3,1,0,17,4409,-19,-3.6
COc1cc(C2Nc3ccc4ccccc4c3C3=C2C(=O)CC(C)(C)C3)ccc1OC(C)C(=O)O (stereo not drawn),1,8,-13,8,3871,x,-0.2
N#Cc1cc(Sc2ccccn2)c(Sc2ccccn2)cc1C#N,-2,-1,-1,10,17696*,-3,3.9
Cn1cc(C(=O)N/N=C/C(Br)=C/c2ccccc2)ccc1=O,x,x,-5,x,3564,-29,x

Going on with the list.
Compound,Mtb hypoxia inh,Mtb hypoxia inh growth,BJeLR viability,Sa ugtP lethal,Autofluor counter,PrP 5UTR inh,RN4220 kill
Cc1cccc(NC(=S)N(Cc2cccs2)Cc2cc3cc(C)cc(C)c3[nH]c2=O)c1,14,4,4,-3,2461,-8,6.9
Cc1ccccc1NC1=NC(=S)N(c2ccccc2)C12CCOC(C)(C)C2 (stereo not drawn),8,8,-2,11,5275,-26,3.3
COc1ccc(/C=N/Nc2cc(C)nc(NS(=O)(=O)c3ccc(C)cc3)n2)cc1,x,x,-7,x,2481,-13,x
O=C(NCC1CCCO1)c1ccc(COc2ccccc2Br)cc1 (stereo not drawn),12,14,9,12,9865,-19,4.7
CCOC(=O)CSC1=N/C(=C\c2cccnc2)C(=O)N1c1ccc(OC)cc1,0,1,8,-4,2558,-69,-4.5
CC(Sc1cnccn1)C(=O)O (stereo not drawn),1,11,-3,0,4890,-11,2.7
CC(C)(C)NC(=O)NC(=O)CSc1nnc2ccccn12,4,1,5,3,3260,-15,4.0
NC(=O)NC(=O)CC1S/C(=N/N=C2/NC(=O)CS2)NC1=O (stereo not drawn),-3,5,5,1,4251,4,7.8
Cc1cc(OCC(=O)N2CCOCC2)ccc1NC(=O)c1ccccc1C,0,5,4,-3,6443,-22,-1.1
COc1ccc(S(=O)(=O)Cc2ccc(C(=O)NCCc3ccc(S(N)(=O)=O)cc3)o2)cc1,x,x,-3,5,6111,3,2.2
Cc1cc(C)cc(NS(=O)(=O)c2ccc(-c3cnc(C4CC4)o3)cc2)c1,7,4,58*,-4,5528,67*,7.5
CNS(=O)(=O)c1cccc(C(=O)OCC(=O)c2c(N)n(C)c(=O)n(C)c2=O)c1,3,6,1,6,6267,-1,3.9
COP(=O)(OC)c1nc(-c2ccccc2)oc1NCc1ccccc1,2,9,5,7,2156,-16,4.3
CN1CCN(c2nc3ccccc3nc2C(C#N)C(=O)OC2CCCCC2)CC1 (stereo not drawn),5,4,7,5,14970,-24,-4.9
CCN1CCN(c2nc(N)c([N+](=O)[O-])c(Nc3ccc(C)c(C)c3)n2)CC1,10,16,8,-8,2270,-5,10
O=C(CSc1nnc(-c2ccncc2)n1Cc1ccco1)c1ccc(Cl)cc1,3,10,7,-5,2448,1,21
CSC1=NCCN1C(=O)c1c(-c2ccccc2Cl)noc1C,x,x,-3,8,5425,-24,2.4
CC(=O)Nc1ccc(OC(=O)c2ccccc2N)cc1,4,7,-1,-4,12658,-29,4.8
COCCNC(=O)Cn1cc2c(n1)CCC(C)C2 (stereo not drawn),x,x,1,3,5360,2,0.7
O=C(CCc1ccccc1)NC(=S)Nc1ccccc1[N+](=O)[O-],8,8,-5,22,5100,-17,0.7
Cc1cc(NC(=O)C(C)SCC(=O)Nc2cc(Cl)ccc2N2CCN(C)CC2)no1 (stereo not drawn),0,-2,-1,-1,6048,-15,0.9
COc1ccc(Br)cc1CNC(=O)C1CCN(S(=O)(=O)N2CCCCC2)CC1,5,0,-2,0,12650,-19,1.3
O=C(CSc1nc2ccccc2o1)N/N=C/c1ccco1,x,x,1,x,5002,-38,x

Record cards, as listed above:
Record of Cc1cc(C)cc(NS(=O)(=O)c2ccc(-c3cnc(C4CC4)o3)cc2)c1 = Mtb hypoxia inh = 7; Mtb hypoxia inh growth = 4; BJeLR viability = 58*; Sa ugtP lethal = -4; Autofluor counter = 5528; PrP 5UTR inh = 67*; RN4220 kill = 7.5
Record of CC(Sc1cnccn1)C(=O)O (stereo not drawn) = Mtb hypoxia inh = 1; Mtb hypoxia inh growth = 11; BJeLR viability = -3; Sa ugtP lethal = 0; Autofluor counter = 4890; PrP 5UTR inh = -11; RN4220 kill = 2.7
